Screens: PubChem BioAssay, National Center for Advancing Translational Sciences (NCATS)
VDR inh: Inhibitors of the vitamin D receptor (VDR): qHTS. 400,000 compounds, 0.93% hits. VDR-SRC2-3 peptide fluorescence polarization, 2 h. Potency, µM, inactives show max response, negative = inhibition, actives largely listed as inhibitors; active means well fitted inhibition curve with a large enough effect; inconclusive means small, poorly fitted or top-dose-only effect, or another doubt; inactive means no such curve, though single readings can be large or run the other way; further: series mostly up to about 120 µM
Target sequence (P11473 whole entry, looked up): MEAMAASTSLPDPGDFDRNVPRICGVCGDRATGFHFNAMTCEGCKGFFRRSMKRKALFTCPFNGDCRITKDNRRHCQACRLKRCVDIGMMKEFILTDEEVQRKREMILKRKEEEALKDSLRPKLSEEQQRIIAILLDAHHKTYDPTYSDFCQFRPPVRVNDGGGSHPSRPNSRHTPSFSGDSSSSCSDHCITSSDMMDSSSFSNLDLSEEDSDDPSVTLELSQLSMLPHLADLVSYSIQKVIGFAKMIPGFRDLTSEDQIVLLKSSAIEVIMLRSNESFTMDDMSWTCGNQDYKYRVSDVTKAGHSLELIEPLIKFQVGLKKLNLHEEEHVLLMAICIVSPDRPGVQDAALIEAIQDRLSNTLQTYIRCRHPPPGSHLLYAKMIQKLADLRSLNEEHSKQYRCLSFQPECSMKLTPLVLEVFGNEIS
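Inhibition of the VDR/SRC2-3 peptide interaction is quantified by fluorescence polarization. Compounds (23 nl, pintool) incubate with the reagents for 2 hours at ambient room temperature.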
An asterisk follows results filed as active; u = inconclusive; & = joins results of further samples. On the % scale 0 is the no-effect control and ±100 the full control effect; potency means the concentration at half of the fitted maximal effect. Not all compounds are listed; count on the stated rates, not on these rows.

VDR inh | Molecule
3.1% | CCc1nc2ccccc2n1Cc1ccccc1OC
-13.8% | COc1ccc(O)c(CNn2c(-c3ccc(Br)cc3)nc3ccccc3c2=O)c1
u | CCn1nnnc1SCC(=O)N1CCc2ccccc21
-6.0% | CCOc1ccc(NC(c2ccccc2)P(=O)(OC)OC)cc1 (stereo not drawn)
20.3% | CC(=O)Nc1cccc(-c2cc(C)c3cc4c(cc3n2)OCO4)c1
3.6% | O=C(Nc1ccccc1N1CCCCC1)c1cnccn1
-13.3% | COc1cccc(N(CC(=O)NC2CC3CCC2C3)S(=O)(=O)c2ccccc2)c1 (stereo not drawn)
-9.8% | Cc1[nH]nc2c1C(c1cccs1)C1=C(CCCC1=O)N2 (stereo not drawn)
-17.1% | CC(=O)Oc1ccc2c(=O)c(N3C(=O)c4ccccc4C3=O)c(C)oc2c1
-6.4% | COc1ccc(Br)cc1/C=C/C(=O)Nc1ccc(C)cc1
-16.5% | CCc1ncc(CN2CCCCC2C(=O)Nc2ccc(Oc3ccccc3)nc2)cn1 (stereo not drawn)
-23.7% | N/C(=N\OC(=O)CC1CCCCC1)c1ccc(Br)cc1
-8.1% | COc1ccc(NC(=O)CSc2nnc3ccc(-c4cccnc4)nn23)cc1OC
-12.6% | N#Cc1ccc(CSc2ccc(S(=O)(=O)N3CCCC3)cn2)cc1
-18.0% | N#C/C(=C/c1ccco1)c1nc2ccccc2s1
-9.0% | O=c1cc(CN2CCN(Cc3ccccc3)CC2)c2cc3c(cc2o1)CCC3
-0.6% | CC1(C)C2CC[C@@]1(C)C(=O)C2
-28.8% | COc1cccc(-c2nc3c(c(SCC(=O)N4CCOCC4)n2)Cc2c(CO)cnc(C)c2O3)c1
2.5% | COc1ccccc1C(CNc1ncccc1[N+](=O)[O-])N(C)C (stereo not drawn)
-7.8% | CCCN(C(=O)Cn1c(C(F)(F)F)nc2ccccc21)C1CCS(=O)(=O)C1 (stereo not drawn)
-14.2% | Cc1ccc(CC(=O)Nc2ccc(OC(F)F)c(Cl)c2)cc1C
-13.3% | C=CCNc1nnc(SCC(=O)Nc2ccccc2OC)c2ccccc12
-16.2% | Cc1cccc(Nc2nc(NCC3CCCO3)nc(N)c2[N+](=O)[O-])c1 (stereo not drawn)
-23.5% | Cc1c(C)n(O)c2ccc3nonc3c12
-2.9% | C#CC(CC)(CC)NC(=O)/C=C/C(=O)O
7.0% | [O-]c1c[n+](-c2ccccc2)no1
-3.8% | C/C(=N\NC(=O)Cn1ccc(C(F)(F)F)n1)c1ccco1
11.0% | c1coc(CNCc2cccs2)c1
-13.9% | CCOC(=O)c1ccc(NC(=O)c2nc[nH]c2C(=O)NCCNC(=O)c2[nH]cnc2C(=O)Nc2ccc(C(=O)OCC)cc2)cc1
10.2% | CCOc1ccccc1NC(=O)N1CCN(Cc2nc3ccc(C)cc3o2)CC1
0.9% | Cc1ccc(C(=O)Nc2ccc3c(c2)C(=O)NC3=O)cc1
11.3% | COCc1cc(C)nc2sc3c(c12)NC(c1ccc(O)c(OC)c1)N(c1ccccc1)C3=O (stereo not drawn)
5.8% | COc1ccc2c(c1)c1c(c(=O)n(-c3ccc(OC)c(OC)c3)c(=O)n1Cc1ccc(C)cc1)n2C
-6.0% | COc1ccc(S(=O)(=O)N2CCN(CCCOc3ccc(F)cc3)CC2)cc1OC
11.5% | CC(=O)Nc1ccc(S(=O)(=O)N2CCC(N3CCCCCC3)CC2)cc1
15.7% | CCC(Sc1nc(-c2cccc(OC)c2)c(C#N)c(=O)[nH]1)C(=O)Nc1nnc(C(C)C)s1 (stereo not drawn)
4.0% | CCOC(=O)C1=C([Si](C)(C)C)c2ccccc2N(S(=O)(=O)C(F)(F)F)C1C(=O)OCC (stereo not drawn)
22.7% | c1ccc(N2CCN(c3ccccc3)C2c2ccncc2)cc1
-21.9% | Cc1occc1-c1nnc(SCC(=O)Nc2ccccn2)o1
7.0% | CCOc1ccc(CNC(=O)CN2C(=O)C3CCCCN3c3ccc(C(=O)N4CCCC4)cc32)cc1 (stereo not drawn)
-11.6% | COc1ccc(C(=O)NCC(=O)OCc2ccc(Cl)cc2Cl)cc1OC
-1.4% | COc1ccc(-n2c(SCC(=O)N/N=C/c3ccccc3OCC(=O)O)nc3ccccc3c2=O)cc1
-2.3% | O=P(Cc1cccc2ccccc12)(c1ccccc1)c1ccccc1
0.6% | CCn1c(N2CCN(C(=S)Nc3ccc(OC)cc3)CC2)nc2ccccc21
14.3% | Cn1nc(OC(=O)Nc2cccc(Cl)c2)cc1C(F)(F)F
-0.3% | CC1(C)N=C(N)N=C(N)N1c1cccc(C#N)c1
-16.9% | S=C(NCCc1ccccc1)N/N=C/c1cccc(Cl)c1Cl
4.4% | Cc1ccc(C)c(NC(=O)CSc2nc3c([nH]c4ccccc43)c(=O)n2-c2ccc(F)cc2)c1
-0.1% | CC(=O)NCCC(=O)N(Cc1ccccc1)c1nc2c(C)cccc2s1
12.5% | O=C1CN(C(=O)COc2ccc(F)cc2Br)c2ccccc2N1
2.6% | Cc1c(NC(=O)c2cccc(F)c2)c(=O)n(-c2ccccc2)n1C
-19.8% | COc1cc(NC(=S)NCCN2CCOCC2)cc(OC)c1OC
-6.4% | O=C(NC(=S)N1CCCC1)c1ccccc1Cl
-7.9% | COc1ccc(N2C(=O)C3CCCN3C2c2ccccc2)cc1 (stereo not drawn)
6.8% | CC(C)NC(=O)Cn1ccc2cc(S(=O)(=O)N3CCCCCC3)ccc21
-10.2% | O=C(/C=C/c1ccco1)c1ccccc1O
1.8% | CCCCNC(=O)CCSc1nc2nc(C)cc(C)n2n1
-20.0% | O=C(O)c1ccc2c3c(cccc13)C(=O)N(c1cccc3ccccc13)C2=O
-2.3% | CC(=O)Nc1nnc(SCC(=O)N2CCN(Cc3ccccc3)CC2)s1
16.1% | CCOc1cc(CNc2ccc(Br)cc2)cc(Br)c1OCC(=O)NC(C)(C)C

Carrying on:
VDR inh | Molecule
u | CN1CCN(c2ncnc3ccc(-c4ccccc4Cl)cc23)CC1
2.0% | CN(Cc1nc2ccccc2[nH]1)C(=O)C1CCC(=O)N(CCc2cccc(F)c2)C1 (stereo not drawn)
-12.1% | CS(=O)(=O)N(CC(=O)N1CCCC1)c1cccc(Cl)c1Cl
-10.9% | Cc1ccc2nc(Cl)c3cc(C(=O)N(CCN(C)C)Cc4ccco4)sc3c2c1
5.2% | Cc1ccc(SCCNC(=O)/C=C/c2cccc([N+](=O)[O-])c2)cc1
7.3% | CCOCCCNC(=O)CSc1nnc(-c2ccc(S(=O)(=O)N3CCCC3)cc2)n1C
-2.9% | Cc1ccc(C2OCC3(CO2)COC(c2ccc(C)cc2)OC3)cc1 (stereo not drawn)
-9.8% | O=C(O)CCC(=O)NCc1ccc2[nH]c3c(c2c1)CCCC3
-10.6% | CCOC(=O)c1c(NC(=O)CSc2ncccn2)sc2c1CCN(Cc1ccccc1)C2
12.6% | COc1cc(CNc2ccc(N3CCN(C(C)=O)CC3)cc2)ccc1OCc1ccc(F)cc1
-1.5% | Cc1cc(C)c2c(n1)nn1c(C)c(CCC(=O)NCc3ccccc3Cl)c(C)nc21
-15.1% | Cc1cccc(-n2c3nc(=O)n(C)c(=O)c-3cc3ccc(Cl)cc32)c1C
6.4% | CN(C)/N=C/C=C1\CC/C(=C\c2ccc(Br)cc2)C1=O
-8.1% | Cc1oc(C(C)(C)C)cc1C(=O)N1CCN(c2ccc(C(F)(F)F)cn2)CC1
-5.9% | CCOc1ccc(CN2CCC(C(=O)Nc3cccc(-c4ccn[nH]4)c3)CC2)cc1Cl
-18.5% | CC1=C(C(N)=O)C(c2ccccc2)n2nc(-c3cccs3)nc2N1 (stereo not drawn)
2.4% | O=C(COc1ccccc1F)Nc1ccccc1OCc1cc(=O)n2ccccc2n1
-12.5% | CS(=O)(=O)N1CCc2cc(C(=O)Nc3cccc([N+](=O)[O-])c3)ccc21
-6.8% | O=C(N/N=C/c1cc([N+](=O)[O-])ccc1O)C12CC3CC(CC(C3)C1)C2
-6.1% | COc1ccc(-c2cccc(NS(=O)(=O)c3cc([N+](=O)[O-])c(C)c([N+](=O)[O-])c3)c2)nn1

Four of the compounds above, with each value named:
Cc1oc(C(C)(C)C)cc1C(=O)N1CCN(c2ccc(C(F)(F)F)cn2)CC1
  VDR inh: -8.1%

C=CCNc1nnc(SCC(=O)Nc2ccccc2OC)c2ccccc12
  VDR inh: -13.3%

O=C1CN(C(=O)COc2ccc(F)cc2Br)c2ccccc2N1
  VDR inh: 12.5%

CCCN(C(=O)Cn1c(C(F)(F)F)nc2ccccc21)C1CCS(=O)(=O)C1 (stereo not drawn)
  VDR inh: -7.8%

(more compounds)
VDR inh | Molecule
u | Nn1cnnc1N/N=C\c1ccc(-c2ccccc2[N+](=O)[O-])o1
-9.9% | COc1ccc(OC)c(NC(=O)C2CCN(c3nc(C)cc(C)n3)CC2)c1
-15.7% | CCN(CC(=O)Nc1ccc(NC(C)=O)cc1)C(=O)c1ccc(NC2CC2)c([N+](=O)[O-])c1
-9.0% | CCC(CCC(=O)Nc1cccc([N+](=O)[O-])c1)C(=O)O (stereo not drawn)
1.7% | COCCn1cnc2c1c(=O)n(Cc1ccc(C#N)cc1)c(=O)n2Cc1ccccc1
8.7%&-15.7%&-3.4%&-2.4% | CN(C)CCC=C1c2ccccc2C=Cc2ccccc21
3.6% | O=C(CCC1CCCN(Cc2ccc3c(c2)OCCO3)C1)NCc1ccccc1F (stereo not drawn)
2.1% | O=C(N/N=C/c1cccs1)c1[nH]ncc1Br
-19.8% | O=C(COc1ncnc2ccccc12)N1CCN(S(=O)(=O)c2ccccc2)CC1
8.0% | Cc1ncc(CN2CCCC(C(=O)Nc3ccc(-n4ccnc4C)cc3)C2)cn1 (stereo not drawn)
-4.7% | CNC(=O)COC(=O)CCC(=O)c1ccc(Cl)cc1
-6.9% | Cc1c(C)c2cccnc2c2ncccc12
7.9% | O=C(O)c1cccc(CSc2ncn[nH]2)c1
-0.7% | Cc1cc(C(=O)Nc2ccccn2)cs1
-10.2% | CCOC(=O)C1=C(COC(=O)c2ccc(Br)o2)NC(=O)NC1C (stereo not drawn)
-0.1% | COC(=O)c1c(NC(C)=O)sc(C(=O)N2CCOCC2)c1C
-12.3%&-11.7% | CCCNC(=O)CN1C(=O)COc2ccc(S(=O)(=O)N3CCCCCC3)cc21
1.2% | COCCn1c(=NC(=O)c2cc(-c3cccs3)nc3ccccc23)sc2cc(S(N)(=O)=O)ccc21
4.2% | CCCCOc1ccc(C(=O)NCc2nnnn2-c2ccc(C)c(C)c2)cc1
10.5% | O=C(NC1CCCCC1)c1ccc(CSc2nc3ccncc3n2Cc2ccc(F)cc2)cc1
-8.6% | CCSc1nc(COC(=O)NC)c(COC(=O)NC)n1C
-15.6% | O=C(CCCCCNC(=O)c1ccccc1Cl)N/N=C/c1ccco1
5.3% | COc1ccc(NC(=O)c2ccccc2NC(=O)c2ccccc2)cc1
2.0% | CCOc1ccccc1-n1c(=O)c2ccccc2c2ccccc2c1=O
-16.3% | CC(C)NC(=S)NCc1cccs1
3.8% | CC(C)N(Cc1ccccc1)C(=O)c1cnc2n(c1=O)CCS2
-9.9% | CC(=O)C(C)Sc1nnc(-c2ccccc2F)n1C1CC1 (stereo not drawn)
-12.1% | COc1ccc(Cl)cc1C(=O)OCC(=O)Nc1sccc1C(N)=O
0.5% | Cc1ccc(C(=O)NCCOc2cccc3cccnc23)cc1Cl
-15.4% | CCCCCN(C(=O)CN1CCC(Cc2ccccc2)CC1)c1c(N)n(CCCC)c(=O)[nH]c1=O
u | CCOC(=O)[C@H]1NN=C(C(=O)OC)[C@@H]1c1ccccc1
9.2% | CSCCC(NS(=O)(=O)c1ccc(Cl)c(Cl)c1)C(=O)O (stereo not drawn)
-12.1% | CCC1SC(CC)C(=O)N(CC(=O)NCc2ccc(F)cc2)C1=O (stereo not drawn)
-5.8% | CC(CNC1CCCCC1)OC(=O)c1ccc([N+](=O)[O-])cc1 (stereo not drawn)
-3.8% | O=C(Nc1ccccc1)Nc1ccccc1C(=O)NCCCN1CCOCC1
11.3% | Cc1cc(C)n2nc(S(=O)(=O)Nc3c(Cl)cccc3Cl)nc2n1
-5.6% | CCc1ccccc1NC(=O)C(NS(=O)(=O)c1ccc2c(c1)CCC(=O)N2)c1ccccc1 (stereo not drawn)
-6.5% | O=C1c2ccccc2C(=O)N1Cc1ccco1
-10.4% | O=Cc1cccn1Cc1ccccc1[N+](=O)[O-]
3.0% | CS(=O)(=O)N(CC(=O)N1CCCCC1)c1cccc(F)c1
0.5% | COc1cc(C=O)c(Cl)cc1OCC(N)=O
-14.5% | CCOc1ccc(N2C(=O)Nc3ccccc3C2(O)C(=O)NCc2ccc(F)cc2)cc1 (stereo not drawn)
-9.2% | COc1ccc(CCNC(=O)COC(=O)/C=C/c2ccc3c(c2)OCO3)cc1
-25.3% | Cc1ccc(NS(=O)(=O)c2c(C)[nH]c(C)c2C(=O)N2CCCCC2)cc1C
-17.8% | CC1CN(S(=O)(=O)c2ccc(C(=O)Nc3ccc(S(=O)(=O)Nc4ncccn4)cc3)cc2)CC(C)O1 (stereo not drawn)
1.2% | CC(=O)c1cc2c(cc1NC(=O)c1c(-c3ccccc3)noc1C)OCO2
10.5% | CC(=O)c1sc(NC(=O)C(C)(C)C)nc1C
-5.9% | CSc1nccc(-c2cc(Cl)sc2Cl)n1
-6.0% | COc1cc(CNc2nc(C)c([N+](=O)[O-])c(C)c2C#N)cc(OC)c1OC
-6.8% | O=C(OCc1ccc(Br)cc1)c1cccc(S(=O)(=O)N2CCCC2)c1

4 entries from above, as labelled records:
> CC(=O)c1sc(NC(=O)C(C)(C)C)nc1C
  VDR inh: 10.5%
> CSc1nccc(-c2cc(Cl)sc2Cl)n1
  VDR inh: -5.9%
> COc1cc(CNc2nc(C)c([N+](=O)[O-])c(C)c2C#N)cc(OC)c1OC
  VDR inh: -6.0%
> O=C(OCc1ccc(Br)cc1)c1cccc(S(=O)(=O)N2CCCC2)c1
  VDR inh: -6.8%
